HIV Env fusion – inhibitors of HIV-1 Env-driven cell-cell fusion, primary screen, HeLa-JRFL effector, CEM21 target cells, luciferase; 1.1% of 360,000 active; inhibition, % at 12.3 µM;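 active = mean replicate inhibition score of at least 50 and every replicate individually at or above 50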;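 also: 0% = plate neutral controls and 100% = maraviroc near 300 nM; one replicate is shown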
Yeast UUG start – modulators of yeast start codon fidelity, primary screen, whole organism, S. cerevisiae, single point, plate reader; activity score, % at 18.7 µM; S. cerevisiae UUG-firefly luciferase reporter, luminescence/redox ratio; 0.13% of 350,000 active;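 active = replicate mean at a twofold rise or more, about +100% in these data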;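 also: firefly luciferase made from a UUG start codon reports start codon fidelity; reporter light over untreated wells divided by growth signal over untreated wells; some hits fall short of that in this replicate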
eIF4H inh – human eIF4H binding inhibitors, primary screen, translation initiation inhibitor project, biochemical, uHTS, fluorescence polarization. Eukaryotic translation initiation factor 4H (Homo sapiens), Q15056. eIF4H fluorescence polarization binding assay. 0.94% of 290,000 active. inhibition, % at 35 µM. AID 2012, 2009;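 active = 50% or more with normal probe brightness, or confirmed in later tests; about a fifth of its hits are not listed in these tables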;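 also: calls also rest on retests at 20 µM and on dose response follow-up; 0% = protein and probe with vehicle and 100% = probe without protein; strong numbers were not always called active; many hits fall short of the cut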
PABP polyA inh – PABP poly(A) RNA binding inhibitors, primary screen, biochemical, fluorescence polarization, uHTS; Polyadenylate-binding protein 1 (Homo sapiens), P11940; inhibition, % at 35 µM; 1% of 290,000 active; AID 2014, 2009;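 active = 50% or more with normal probe brightness, or confirmed in later tests; about a fifth of its hits are not listed in these tables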;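 also: calls also rest on retests at 20 µM and on dose response follow-up; controls were probe without protein and protein plus probe with vehicle; some compounds called inactive have numbers as strong as hits; many hits fall short of the cut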
Rce1 inh – yeast Rce1p protease inhibitors, primary screen, biochemical, fluorescence, cell-free homogeneous; CAAX prenyl protease 2 (Saccharomyces cerevisiae (strain ATCC 204508 / S288c)), Q03530; yeast membranes, quenched prenylated peptide cleavage fluorescence; calls only; 0.27% of 290,000 active; AID 2563, 2010;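 active = fall in fluorescence gain of 50% or more versus controls, with final raw signal at or below 3038400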;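 also: plate controls were neutral control wells for no effect and wells lacking membranes for full effect; tested at 10 µM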
Target sequence (Q03530 whole entry, looked up): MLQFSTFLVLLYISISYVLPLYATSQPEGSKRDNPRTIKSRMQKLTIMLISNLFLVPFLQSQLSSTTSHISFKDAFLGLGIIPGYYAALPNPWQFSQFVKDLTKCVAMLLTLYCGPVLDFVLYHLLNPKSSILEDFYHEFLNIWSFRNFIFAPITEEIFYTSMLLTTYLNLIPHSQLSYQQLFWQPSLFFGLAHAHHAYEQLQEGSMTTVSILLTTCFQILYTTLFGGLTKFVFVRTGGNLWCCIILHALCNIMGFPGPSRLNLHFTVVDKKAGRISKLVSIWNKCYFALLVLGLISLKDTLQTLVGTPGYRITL
CSC inhib – cancer stem cell viability inhibitors, primary screen, luminescence; cancer stem cell-like cells viability; inhibition, % at 7.5 µM; 1.1% of 300,000 active; AID 2717, 2010;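 active = mean at 75% or more and at least half the replicates too; tested in HMLE shEcad cells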;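 also: 0% = median of negative and 100% = median of positive control wells; the first replicate is given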
MT1-MMP act inh – blockers of MT1-MMP proenzyme processing, primary screen, HT1080 RFP-PRO-GFP cells, GFP/RFP fluorescence | Matrix metalloproteinase-14 (Homo sapiens), P50281 | GFP/RFP ratio fluorescence, overnight; percent of plate control window, DMSO zero | GFP/RFP ratio change, % at 20 µM | 0.061% of 360,000 active;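 active = GFP/RFP ratio change of at least 30% with cell ATP level not reduced by more than half and red fluorescence within 50% of control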; also: strong numbers were not always called active
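Assay system – RFP-PRO-GFP reporter HT1080 cells · Compound dosing – single dose of 20 µM compound, 1% DMSO final · Incubation – overnight compound exposure at 37 °C · Measure – GFP/RFP fluorescence ratio · Benchmarks – DMSO wells and RFP-L50D-GFP cells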
eIF4H inh retest – also measured in eIF4H inh; calls as there; inhibition, %; compound at 20 µM; confirmation average;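 mean of two retest wells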
PABP polyA inh retest – further read-out of PABP polyA inh, marked with its call; inhibition, %; compound at 20 µM; confirmation repeats;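 mean of two retest wells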
MT1-MMP act inh RFP – also measured in MT1-MMP act inh; calls as there; RFP signal change, %; measured here: RFP expression control read;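 0 = vehicle wells; hits needed this value within 50% of zero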
The depositor's hits bear a star; i = inactive; / = no result given.

SMILES	HIV Env fusion	Yeast UUG start	eIF4H inh	PABP polyA inh	Rce1 inh	CSC inhib	MT1-MMP act inh	MT1-MMP act inh RFP	others
CCOc1ccc(N(CC)C(=O)CCS(=O)(=O)c2cccc3nonc23)cc1	-5	-8	-6	-5	i	-1	1	0
CCOC(=O)C1CCCN(C(=O)c2cc3c(C)nc4ccccc4c3o2)C1 (stereo not given)	56*	-28	4	-4	i	6	5	-4
CCc1cccc(C)c1NC(=O)CC(C)(C)CC(=O)O	13	/	2	-3	i	10	-1	4
COc1ccc(NC(=O)COC(=O)CNC(=O)c2cc(OC)c(OC)c(OC)c2)cc1	-54	1	-15	12	i	-8	2	6
CC(C(=O)Nc1ccccc1)C(=O)Nc1ccccc1	6	-7	2	0	i	7	8	10
CCOc1ccc(Nc2cc(=O)oc3ccccc23)cc1	/	-12	0	-4	i	/	6	-5
Cc1cc(C)cc(NC(=O)CCc2c(C)nn(-c3ccc(N4CCCCC4)nn3)c2C)c1	-35	-15	11	2	i	-13	7	-1
Nc1cc(N)nc(SCC(=O)N2CCN(S(=O)(=O)c3ccccc3)CC2)n1	-10	-8	-1	3	i	-7	1	1
COc1cc(O)c(C(CC(=O)N2CCCCC2)c2ccc3c(c2)OCO3)c(OC)c1 (stereo not given)	-15	4	2	5	i	-7	-3	1
CCN(CC(=O)NCc1cccs1)S(=O)(=O)c1ccc(C(C)C)cc1	/	5	3	-11	i	-19	2	-1
O=c1c(O)c(-c2cc(O)c(O)c(O)c2)oc2cc(O)cc(O)c12	36	-14	/	/	/	13	-15	-3
COc1ccc(-c2nnn(-c3cc(Cl)cc(Cl)c3)c2N)cc1	-12	/	-4	-5	i	-4	5	-5
Cc1ccccc1-c1nc(NC(C)C)nc2cc(-c3ccccc3)sc12	7	-19	/	/	/	/	-12	-5
O=C(C[n+]1cccc(Br)c1)c1cccs1	10	-2	15	16	i	-5	3	2
Cc1cc(C)c2c(-n3cccc3)nn(C)c2n1	/	-9	-3	2	i	1	2	0
COC(=O)c1c(-c2c(Cl)cccc2Cl)noc1C(=O)NN	18	/	3	1	/	-10	3	2
COc1ccc(CCN2CNc3c(c(=O)n(C)c(=O)n3C)C2)cc1OC	/	-11	-2	-2	i	7	2	4
O=C(/C=C/c1ccccc1)NCCc1nc2ccccc2[nH]1	-8	-17	2	5	i	4	-3	1
Cn1c(N)c(C(=O)COC(=O)CNC(=O)c2ccccc2Cl)c(=O)n(C)c1=O	/	2	/	/	/	-18	-3	5
CCN(CC)S(=O)(=O)c1ccc(N2CCCC2)c(C(=O)OCC(=O)/C(C#N)=C(\C)N)c1	-239	5	3	8	i	-2	0	1
Cc1occc1C(=O)NNC(=O)c1ccccc1[N+](=O)[O-]	-16	-16	-17	-12	/	-5	2	2
CCCCn1c(N)c(N(CC)C(=O)c2cc3c(s2)CCCCC3)c(=O)[nH]c1=O	4	0	/	/	i	-10	3	5
Cc1ccnc(N2C(=O)c3ccccc3C2O)c1 (stereo not given)	-64	-38	-7	-7	i	22	7	7
Cc1c(CN(C)C(=O)c2nn(C)cc2[N+](=O)[O-])cnn1C	-15	-22	-7	9	i	0	-2	2
CCc1nnc(N/N=C/c2c(F)cccc2Cl)n1N	-3	-15	-2	-2	i	-5	1	1
CCOC(=O)C1(CC)NC(c2ccco2)C2C(=O)N(C)C(=O)C21 (stereo not given)	-14	-18	4	-4	i	4	-2	-2
CC(=O)Nc1ccc(S(=O)(=O)N2CCSC2C(=O)O)cc1 (stereo not given)	/	-11	-7	-4	/	-6	4	5
O=C(CCc1nc2ccccc2c(=O)[nH]1)Nc1nnc(SCc2ccccc2F)s1	-18	-14	/	/	/	/	-6	-3
Cc1ccc2c(=O)n3c(nc2c1)C(Cc1ccc(O)cc1)NC(=O)c1cccnc1-3 (stereo not given)	5	8	/	/	/	/	-2	3
CCC(=O)N(C1=C(NC(C)C)C(=O)c2ccccc2C1=O)C(C)C	28	1	-7	12	i	-1	5	3
Cc1cccn2c(=O)c(C=Nc3ccccc3)c(NCc3ccco3)nc12	/	-10	16	14	i	1	-9	3
CCCOc1cccc(C(=O)Nc2ccc3c(c2)OCCO3)c1	-90	-33	1	7	i	5	0	-3
CC(C)COC(=O)c1cc(=O)[nH]c2ccccc12	/	2	-5	-10	i	-26	-6	-6
O=C(OCC(=O)N1CCOCC1)c1ccc2ccccc2c1	-11	-31	/	/	/	-19	-4	-3
CC12CCC(C(=O)Nc3ccncc3)(CC1O)C2(C)C (stereo not given)	-13	/	-2	-4	i	/	-1	-1
CC1=Nn2c(nnc2-c2ccco2)SC1	-13	-15	-1	1	i	-11	0	7
COc1nc(C)ccc1-c1noc(-c2ccco2)n1	-157	-38	3	14	i	-4	-1	2
O=C(COc1ccc(-c2nnco2)cc1)N1CCN(S(=O)(=O)c2ccc3ccccc3c2)CC1	21	0	-4	-8	i	-9	-3	-7
O=S1(=O)CC(N2CCN(c3ncccn3)CC2)CN1Cc1ccc(F)cc1 (stereo not given)	24	4	/	/	/	/	9	12
O=C(CNS(=O)(=O)c1ccc(Br)cc1)NCc1cccnc1	3	-11	0	-6	i	-4	4	2
Cc1cccc(C)c1NC(=O)CN1CCN(C(=O)c2cc(C3CC3)nn2-c2ccccc2)CC1	13	0	/	/	/	/	0	-1
CCCCc1ccc(NC(=O)CSc2nc3ncccc3[nH]2)cc1	3	-16	0	-1	i	-13	-3	-30
CCOC(=O)c1csc(NC(=O)CSc2nnnn2-c2ccc(OC)cc2)n1	/	2	-5	9	i	-5	15	-1
CC(c1ccccc1F)n1cc(C(=O)NCCc2ccco2)nn1 (stereo not given)	-71	38	-1	4	i	-7	-5	-1
Nc1cc(=O)[nH]c(SCC(=O)Nc2cc(S(=O)(=O)N3CCCCC3)ccc2Cl)n1	-2	-16	/	/	/	-9	8	-5
COc1ccc(C(=O)c2ccc(N(C)C)cc2)c(OC)c1	/	-15	-15	-5	i	72	-10	-13
Cc1ccc(C(C)n2cc(C(=O)NCc3ccccn3)nn2)cc1 (stereo not given)	-1	-12	0	8	i	-1	-3	2
COc1cccc(N2CCN(C(=O)CCC(=O)N3CCOc4ccc(C)cc43)CC2)c1	-18	-2	-4	2	i	4	-2	-1
CC(O)(c1ccc(F)c(F)c1)c1nc(-c2ccoc2)cs1 (stereo not given)	19	-12	/	/	/	/	-7	-2
CC1CCCN(C(=O)Cn2c(=O)oc3cc(S(=O)(=O)N4CCCCC4)ccc32)C1 (stereo not given)	20	5	-2	6	/	15	-2	0
COc1ccc(C(C)(C)C)cc1NC(=O)CCN1C(=O)C2CCCCC2C1=O (stereo not given)	-18	2	/	/	/	/	-1	4
O=c1cc(CN2CCN(c3ccccc3)CC2)nc2scc(-c3ccccc3)n12	3	/	72	8	i	-1	-7	-10	eIF4H inh retest=19;PABP polyA inh retest=36
COc1ccc(N2CCN(c3cc(=O)n(Cc4ccc(F)cc4)c(=O)[nH]3)CC2)cc1	15	-18	-7	2	/	-8	-2	-12
CCOC(=O)C1CCCN(c2c(N3CCN(C4CCCCC4)CC3)c(=O)c2=O)C1 (stereo not given)	-10	-5	10	-8	i	1	7	6
O=C(O)c1cc(S(=O)(=O)Nc2ccc(N3CCCCC3)cc2)ccc1Cl	-2	-8	-8	1	i	-4	2	4
CCN(CC(=O)Nc1ccc(NC(C)=O)cc1)C(=O)c1cc(-c2ccccc2)nn1-c1ccccc1	-16	-11	/	/	i	/	4	-2
Cc1ccc(NC(=O)CSc2n[nH]c(C)c2[N+](=O)[O-])cc1C	-5	/	-5	11	i	6	2	6
O=C(COC(=O)c1ccc(F)c(S(=O)(=O)N2CCOCC2)c1)Nc1ccc2[nH]c(=O)[nH]c2c1	/	-18	/	/	/	1	-2	2
COCc1nc2oc3ccc(F)cc3c(=O)c2cc1C(=O)OC	-28	-15	0	-3	i	-3	1	2
Cc1cc(C)cc(Nc2nc3ccccc3c(=O)[nH]2)c1	1	/	-15	-17	i	-4	4	-1

Ordered by molar mass (descending): some entries from above.
SMILES	HIV Env fusion	Yeast UUG start	eIF4H inh	PABP polyA inh	Rce1 inh	CSC inhib	MT1-MMP act inh	MT1-MMP act inh RFP	others
CCN(CC(=O)Nc1ccc(NC(C)=O)cc1)C(=O)c1cc(-c2ccccc2)nn1-c1ccccc1	-16	-11	/	/	i	/	4	-2
O=C(COC(=O)c1ccc(F)c(S(=O)(=O)N2CCOCC2)c1)Nc1ccc2[nH]c(=O)[nH]c2c1	/	-18	/	/	/	1	-2	2
Nc1cc(=O)[nH]c(SCC(=O)Nc2cc(S(=O)(=O)N3CCCCC3)ccc2Cl)n1	-2	-16	/	/	/	-9	8	-5
COc1cccc(N2CCN(C(=O)CCC(=O)N3CCOc4ccc(C)cc43)CC2)c1	-18	-2	-4	2	i	4	-2	-1
CC1CCCN(C(=O)Cn2c(=O)oc3cc(S(=O)(=O)N4CCCCC4)ccc32)C1 (stereo not given)	20	5	-2	6	/	15	-2	0
COc1ccc(N2CCN(c3cc(=O)n(Cc4ccc(F)cc4)c(=O)[nH]3)CC2)cc1	15	-18	-7	2	/	-8	-2	-12
CCOC(=O)C1CCCN(c2c(N3CCN(C4CCCCC4)CC3)c(=O)c2=O)C1 (stereo not given)	-10	-5	10	-8	i	1	7	6
O=C(O)c1cc(S(=O)(=O)Nc2ccc(N3CCCCC3)cc2)ccc1Cl	-2	-8	-8	1	i	-4	2	4
COc1ccc(C(C)(C)C)cc1NC(=O)CCN1C(=O)C2CCCCC2C1=O (stereo not given)	-18	2	/	/	/	/	-1	4
CCCCc1ccc(NC(=O)CSc2nc3ncccc3[nH]2)cc1	3	-16	0	-1	i	-13	-3	-30
CC(c1ccccc1F)n1cc(C(=O)NCCc2ccco2)nn1 (stereo not given)	-71	38	-1	4	i	-7	-5	-1
Cc1ccc(C(C)n2cc(C(=O)NCc3ccccn3)nn2)cc1 (stereo not given)	-1	-12	0	8	i	-1	-3	2
Cc1ccc(NC(=O)CSc2n[nH]c(C)c2[N+](=O)[O-])cc1C	-5	/	-5	11	i	6	2	6
COCc1nc2oc3ccc(F)cc3c(=O)c2cc1C(=O)OC	-28	-15	0	-3	i	-3	1	2
CC(O)(c1ccc(F)c(F)c1)c1nc(-c2ccoc2)cs1 (stereo not given)	19	-12	/	/	/	/	-7	-2
COc1ccc(C(=O)c2ccc(N(C)C)cc2)c(OC)c1	/	-15	-15	-5	i	72	-10	-13
Cc1cc(C)cc(Nc2nc3ccccc3c(=O)[nH]2)c1	1	/	-15	-17	i	-4	4	-1

More structures.
SMILES	HIV Env fusion	Yeast UUG start	eIF4H inh	PABP polyA inh	Rce1 inh	CSC inhib	MT1-MMP act inh	MT1-MMP act inh RFP	others
CC(C)CC(N)c1csc(Nc2ccc(C(=O)NCCO)cc2)n1 (stereo not given)	-6	-21	/	/	/	/	1	2
COc1ccc(/C=C/C(=O)NC(=S)NCC2CCCO2)cc1 (stereo not given)	-3	/	-10	-1	i	4	0	1
COc1ccc(OC)c(NC(=O)c2ccc(CSc3nnc(C)s3)cc2)c1	-6	1	7	-6	i	-4	3	-1
CCCS(=O)(=O)N1CCC(C(=O)NCc2ccccc2Cl)CC1	/	-11	-4	-6	/	-5	1	1
